MbtI inh – inhibitors of Mycobacterium tuberculosis siderophore enzyme MbtI | purified MbtI enzyme, fluorescence intensity read-out | inhibition, %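 (about 17 µg/mL by stock and volumes)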 | actives 0.89% (n = 100,000) | AID 493033;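 active = above 50% in both replicates, above 80% if mildly self-fluorescent; inactive = the rest, strongly fluorescent compounds included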;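 note: 0% = mean of negative and 100% = mean of positive controls; one replicate is shown; some compounds called inactive have numbers as strong as hits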
PV pol inh – poliovirus RNA polymerase inhibition; P03300; poliovirus polymerase elongation, fluorescence polarization; active compounds read low; actives 0.66% (n = 150,000); % elongation, % (compound at 16.7 µg/mL); AID 588519; in the data active = % elongation below about 90%; note: some results filed as inactive read as strong as hits
Target sequence (P03300 1749-2209 limits assumed): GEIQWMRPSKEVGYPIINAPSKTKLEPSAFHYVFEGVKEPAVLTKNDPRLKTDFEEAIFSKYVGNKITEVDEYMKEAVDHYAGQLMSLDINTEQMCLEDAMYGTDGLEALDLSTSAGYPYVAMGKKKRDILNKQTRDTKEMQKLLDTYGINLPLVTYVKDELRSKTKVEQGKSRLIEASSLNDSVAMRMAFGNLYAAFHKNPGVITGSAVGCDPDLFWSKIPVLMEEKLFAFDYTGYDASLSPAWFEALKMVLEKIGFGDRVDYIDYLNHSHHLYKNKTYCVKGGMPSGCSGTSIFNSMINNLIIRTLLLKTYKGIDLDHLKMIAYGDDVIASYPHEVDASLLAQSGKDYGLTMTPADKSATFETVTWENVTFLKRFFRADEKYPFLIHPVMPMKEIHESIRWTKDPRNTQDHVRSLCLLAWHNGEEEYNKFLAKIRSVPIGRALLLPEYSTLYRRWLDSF
MenB inh – inhibitors of Mycobacterium tuberculosis MenB enzyme; P9WNP5; MenB enzyme assay, absorbance read-out; some hits fall short of the stated cut; inhibition, %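 (about 12 µg/mL by stock and volumes)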; actives 0.43% (n = 100,000);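 active = mean of two replicates above 30%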;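 note: 0% = no compound and 100% = wells with inactive enzyme; the first replicate is given; strong numbers were not always called active; inactives centre near -10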
Target sequence (P9WNP5 whole entry, looked up): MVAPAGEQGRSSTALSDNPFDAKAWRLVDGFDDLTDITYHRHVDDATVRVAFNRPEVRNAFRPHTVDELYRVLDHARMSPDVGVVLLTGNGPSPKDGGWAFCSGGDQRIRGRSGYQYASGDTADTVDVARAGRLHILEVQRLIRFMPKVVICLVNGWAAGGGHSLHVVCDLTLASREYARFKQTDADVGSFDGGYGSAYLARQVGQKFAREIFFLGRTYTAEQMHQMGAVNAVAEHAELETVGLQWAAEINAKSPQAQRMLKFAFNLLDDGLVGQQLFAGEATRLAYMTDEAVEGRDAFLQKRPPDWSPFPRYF
PV pol inh intensity – also measured in PV pol inh; calls as there; % elongation; measured here: total intensity read-out; formula for this scale not given here;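 total fluorescence in place of polarization; lower means less elongation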
* = called active by the depositor; . = not tested or not shown; & = joins results of further samples.

compound,MbtI inh,PV pol inh,PV pol inh intensity,MenB inh
CC(=O)NC(=S)Nc1ccc(Nc2ccccc2)cc1,1,101,101,-18
C=CCN1C(=O)S/C(=C/c2ccc(Sc3nc4ccccc4[nH]3)o2)C1=O,-34,113,149,-50
S=C(NCCN1CCOCC1)N1CCc2ccccc21,13,101,103,-7
CCS(=O)(=O)CS(=O)(=O)CC,-12,102,103,-1
CCn1c(C)c(C(C)(C)C)s/c1=N\S(=O)(=O)c1ccc(Cl)cc1,6,100,104,-35
Cc1noc(C)c1COc1ccc(C(=O)OCCN2C(=O)c3ccccc3C2=O)cc1,-18,108,111,3
N#CC1=C(N)N(c2ccccc2)c2oc(-c3ccccc3)nc2C1c1cccc(O)c1 (stereo not given),.,108,108,-9
CC(=O)SCCC(=O)Nc1ccccc1,-12,100,101,-9
Cc1cnn(-c2ccccc2)c(=O)c1N(C)C,11,103,101,-21
COC(=O)c1ccccc1NC(=O)CNc1cc(Cl)ccc1N1CCOCC1,-6,101,106,-38
CC(NC(=O)c1ccco1)C(=O)Nc1ccc(OCc2ccccc2)cc1 (stereo not given),-2,100,105,.
COC(=O)c1ccc(C(=O)OC)c(NC(C)=O)c1,68,100,101,-5
CC(C)n1ncc2c(C(=O)OCc3ccc(C#N)cc3)cc(-c3ccccc3)nc21,-41,98,98,-11
Cc1ccsc1/C=N/N1CCN(Cc2ccc(Cl)cc2)CC1,2,105,106,-30
CCN1C(=O)CCSc2ccccc21,-5,101,100,-9
CC(=O)N(c1ccc2oc3c(c2c1)CCCC3)S(=O)(=O)c1ccccc1,-43,101,102,-7
CCC(Sc1nc(NC(C)=O)c(NC(=O)c2cccs2)c(=O)[nH]1)C(=O)O (stereo not given),0,99,102,3
CCOC(=O)c1cc(-c2ccc(C)cc2)n(CCC(=O)NC2CCCCCC2)c1C,4,103,99,6
CCOC(=O)C1=C(CC)NC2=C(C(=O)CCC2)C1c1ccc(Cl)cc1 (stereo not given),-2,103,99,6
CCOC(=O)c1[nH]c(COC(=O)c2ccccc2NC(=O)c2ccco2)c(C(=O)OCC)c1C,71,103,107,-31
C/C(=C\C#N)N1CCOCC1,-10,99,95,-12
C=CCn1cc(C(=O)OC)c(=O)c2cc(S(=O)(=O)N(CC)CC)ccc21,-5,103,104,-17
CP(=O)(c1nccn1-c1ccc(Cl)nn1)N1CCCCCC1 (stereo not given),-6,100,100,7
O=C(NCc1ccc(N2CCCC2=O)cc1)Nc1ccccc1,-1,100,103,7
CC(C)C(NC(=O)c1ccccc1NC(=O)c1ccco1)C(=O)N1CCCCC1 (stereo not given),-5,103,111,-13
Cc1ccc(NC(=O)C(Sc2nnc(-c3ccc4c(c3)OCO4)o2)c2ccccc2)cc1 (stereo not given),-114,103,108,-45
Nc1nonc1NC(=O)N/N=C/c1ccc(C(F)(F)F)cc1,3,101,101,-9
CCC(NC)c1ccco1 (stereo not given),-3,102,103,-20
Cc1ccc(N(C)C(=O)N2CCN(C(=O)N(C)c3ccc(C)cc3)CC2)cc1,20,102,106,7
CCN(CC)/C(C)=N/S(=O)(=O)c1ccc(Cl)cc1,3,102,99,3
COC(=O)Cc1c(C)c2ccc(OCC(N)=O)c(C)c2oc1=O,-92,102,107,8
Nc1c(S(=O)Cc2ccccc2)sc2nc(-c3cccs3)cc(-c3ccccc3)c12 (stereo not given),95,101,107,-23
CCOC(=O)c1c(C)oc2c1c(C=NC(C)c1ccccc1)c(O)c1ccccc12 (stereo not given),1,102,107,-8
CCCCN(C)C(=O)c1oc(=O)c2ccccc2c1-c1ccc(C)cc1,0,103,107,-16
Cc1cccc(C2CCCCC2)c1O,-3,100,99,.
COc1ccccc1NC(=O)c1cn(-c2ccccc2)nc1-c1cccnc1,0,102,98,.
Cc1ccc(NC(=O)/C(C#N)=C/c2cn(CC(=O)NCc3ccco3)c3ccccc23)cc1Cl,-10,99,105,-35
N#C/C(C(=O)c1ccccc1)=C1/Nc2ccccc2C1=O,-8,101,102,15
Cc1ccc(C(=O)Nc2cccc(C(F)(F)F)c2)cc1,1,99,94,-5
O=c1c2c3c(sc2nc2n1CCC2)CCCCC3,-5,104,111,-83
CN(Cc1ccccc1)C(=O)c1cc2ncc(Br)cn2n1,-11,105,101,-32
O=P(O)(C1Cc2ccccc2C1)C(O)c1ccco1 (stereo not given),-9,86,123,-3
O=C1CC(c2nc3ccccc3[nH]2)CN1c1ccccc1Cl (stereo not given),-7,104,102,-9
COc1ccc(-c2cc(C)no2)cc1S(=O)(=O)Nc1ccc(CN2CCCCC2)cc1,13,98,102,-4
CC1(C)CC(=O)C2=C(C1)OC1=C(C(=O)CC(C)(C)C1)C2c1cccnc1,.,103,95,5
Nc1ccc2c(c1)C(=O)NC2=O,15,100,104,-108
CC/C(=C(/CC)c1ccc(O)cc1)c1ccc(O)cc1,-8&-14,100&101,104&103,5&8
CCCCNC(=O)c1cc2cccnc2n(Cc2ccccc2)c1=O,-12,104,102,-15
CN(Cc1cccs1)C(=O)c1cc(S(=O)(=O)N2CCOCC2)ccc1F,8,100,104,-4
Cc1ccc2nc3c(cc(C(=O)NCCN4CCOCC4)c(=N)n3C(C)C)c(=O)n2c1,117,103,105,-77
CC(=O)NC1=NN(C(C)=O)C(/C=C/c2ccccc2)S1 (stereo not given),-3,102,96,-21
COC(=O)COc1ccccc1C1NC(=O)NC(C)=C1C(=O)Nc1ccccc1OC (stereo not given),-11,100,103,-4
CN(CC(=O)Nc1ccc2c(c1)OC1(CCCCC1)O2)C1CCCCC1,-11,102,93,-46
O=C(O)CCCNC1=NCCN1,-2,100,103,31
Cc1cc(C)n2cc(CSCC(=O)O)nc2n1,108,100,95,-17
CCSc1nc2nn(-c3ccccc3)c(=O)c-2c2n1CCCCC2,-13,99,104,-3
CCOc1ncccc1C(=O)Nc1ccnn1C(C)C1CC1 (stereo not given),-10,96,103,-6
CN1CCCN(C(=O)Nc2ccc(F)cc2)c2nc3ccccc3nc21,-15,98,103,-34
CCOC(=O)c1nccn1CC(=O)Nc1ccccc1CC,5,104,98,6
COC(=O)c1sccc1S(=O)(=O)N1CCCC1,-6,103,104,-12

Next compounds follow.
compound,MbtI inh,PV pol inh,PV pol inh intensity,MenB inh
COc1ccc(C(=O)N2CCN(C(C)C)CC2)cc1,.,105,102,-2
CCOC(=O)COc1ccc2c(C)cc(=O)oc2c1,.,106,110,5
CCC(=O)N1CCc2cc(S(=O)(=O)N(CC)c3ccccc3)ccc21,-4,102,108,-23
O=C(COc1ccccc1)Nc1c(C(=O)c2ccccc2)oc2ccccc12,6,104,100,9
O=C(NC(=S)N1CCN(c2ccccc2)CC1)c1ccccc1,-4,101,104,-10
Cc1ccccc1Nc1nnc(SCC(C)C)s1,-2,110,130,-45
OCC1(CO)COC(c2ccc(Cl)cc2Cl)=N1,-6,100,101,-14
CCCCCn1cn[nH]c1=S,12,101,110,-6
CC(C)(C)N(C(=O)c1ccc(S(=O)(=O)N2CCCC2)cc1)C(=O)N1CCCCC1,16,.,.,10
Cc1cc(C)c(-c2cc(C(F)(F)F)no2)c(=O)[nH]1,-8,102,104,9
O=C(CN1C(=O)c2ccccc2S1(=O)=O)N1CCc2ccccc2C1,-3,99,95,.
CCOCC(=O)N1CCN(CC)CC1,-4,102,103,-10

Not a retest: an excerpt of the list.
compound,MbtI inh,PV pol inh,PV pol inh intensity,MenB inh
O=C(COc1ccccc1)Nc1c(C(=O)c2ccccc2)oc2ccccc12,6,104,100,9
O=C(NC(=S)N1CCN(c2ccccc2)CC1)c1ccccc1,-4,101,104,-10

By substructure: those above with a cyano group
compound,MbtI inh,PV pol inh,PV pol inh intensity,MenB inh
N#CC1=C(N)N(c2ccccc2)c2oc(-c3ccccc3)nc2C1c1cccc(O)c1 (stereo not given),.,108,108,-9
CC(C)n1ncc2c(C(=O)OCc3ccc(C#N)cc3)cc(-c3ccccc3)nc21,-41,98,98,-11
C/C(=C\C#N)N1CCOCC1,-10,99,95,-12
Cc1ccc(NC(=O)/C(C#N)=C/c2cn(CC(=O)NCc3ccco3)c3ccccc23)cc1Cl,-10,99,105,-35
N#C/C(C(=O)c1ccccc1)=C1/Nc2ccccc2C1=O,-8,101,102,15

New compounds follow.
compound,MbtI inh,PV pol inh,PV pol inh intensity,MenB inh
CN(CC(=O)NCc1ccc(Cl)cc1)S(=O)(=O)c1ccc2c(c1)CCCC(=O)N2,4,100,102,-8
CC(C)c1ccc(NC(=O)[C@@H](c2ccccc2)N2Cc3ccccc3C2=O)cc1,-3,103,104,-3
COC(=O)c1ccc(-c2nc3ccccc3o2)cc1,.,101,106,2
CSc1nc2ccccc2c(=O)n1-c1ccc(F)cc1F,-5,103,94,.
COC(=O)CC(=O)Nc1cc2c(cc1N1CCCC1)n(C)c(=O)n2C,-22,99,101,-5
CN(C)S(=O)(=O)c1cccc(C(=O)c2nccn2C)c1,-19,103,108,-9
COc1cc2c(=O)n(Cc3ccccc3Cl)c(=O)n(CC(=O)NC3CCCCC3)c2cc1OC,-5,100,102,-17
O=C(O)c1ccc(-c2ccccc2)cc1,4,95,99,20
CN1C(C)(C)CC(NC(=O)Nc2ccc(F)cc2)CC1(C)C,-12,103,105,-19
CC(NC(=O)C1=NNC(=O)CC1)C12CC3CC(CC(C3)C1)C2 (stereo not given),1,107,103,-24
O=C(O)c1cc(N=Cc2ccccc2)ccc1O,8,100,99,-15
Cc1cccc(NC(=O)COC(=O)CC2CCCC2)c1C,-16,108,111,-5
O=C(/C=C/c1cn(-c2ccccc2)nc1-c1cc2ccccc2o1)OCC(=O)c1ccc[nH]1,19,109,113,-15
COc1ccc(C2CC(c3nc4ccccc4[nH]3)=NN2C(=O)c2ccc(Br)o2)cc1 (stereo not given),-9,102,102,-31
CC(C)CN(CC(C)C)S(=O)(=O)c1ccc(-c2ccc(=O)[nH]n2)s1,-2,104,98,-29
O=C1CC2(CCN(C(=O)c3ccccc3)CC2)Oc2ccccc21,93,104,105,-3
CCCCCc1nc2ccccc2[nH]1,-2,102,103,-11
Cc1ccc(OCCn2c(CC(C)(C)C)nc3ccccc32)cc1,-16,105,108,-20
O=C(Nc1cccc(O)c1)C1CC(c2cccc(Br)c2)=NO1 (stereo not given),-10,104,104,-5
COCCCn1c(=O)c2ccccc2n(CC(N)=O)c1=O,58,101,101,28*
O=C(O)c1ccc(NC2OC(CO)C(O)C2O)cc1 (stereo not given),.,90*,87*,-15
CC1Cc2ccccc2N1C(=O)Nc1c[nH]c2ccccc12 (stereo not given),-54,100,105,9
O=C(CSc1nnc(SCC(=O)NC2CC2)s1)NC1CC1,-9,100,104,-13
CC(C)OC1(O)C(=O)c2ccccc2C(=O)C1(O)OC(C)C (stereo not given),.,9.0*,28*,-19
COc1ccc(-c2cc(-c3ccccc3O)n(C3C(=O)Nc4ccc(Br)cc43)n2)cc1 (stereo not given),.,106,111,-16
O=C(NCc1ccccc1)Nc1ccccc1F,-9,99,103,-7
C=CCNc1oc(Cc2ccccc2)nc1C#N,-7,100,102,-8
COC(=O)Nc1ccccc1,-53,105,111,-11
CCCNS(=O)(=O)c1ccc(OCC(=O)NCCC2=CCCCC2)cc1,-12,101,101,-23
Nc1ccccc1NC(=O)CCC(=O)O,-19,104,98,-41
N#Cc1c(NS(=O)(=O)c2ccccc2)n(-c2ccccc2)c2nc3ccccc3nc12,-100,99,111,-19
Cc1cc2cc(CN3C(=O)c4ccccc4C3=O)ccc2n1C,-2,101,104,-24
CSc1ccccc1NC(=O)CSc1ncccn1,-5,102,104,-27
Cc1cc(C)n(CCCNC(=O)c2ccccc2NC(=O)c2ccco2)n1,12,100,84,-39

Assay outcomes (PubChem)
